TRPML1 agonist: human mucolipin-1 channel agonism | Q9GZU1 | TRPML1-expressing cells, Ca2+ dye fluorescence, FDSS; host cell line not named in the record; reference of the full effect not given here | hit rate 0.12% among 410,000 | AID 624414 | activation, % (test concentration not listed); in the data active = activation above about 50%; inconclusive = about 30% to 50%; inactive = below about 30%; also: 0% is about no effect; the text of the record puts the active cut at 80%
Target sequence (Q9GZU1 whole entry, looked up): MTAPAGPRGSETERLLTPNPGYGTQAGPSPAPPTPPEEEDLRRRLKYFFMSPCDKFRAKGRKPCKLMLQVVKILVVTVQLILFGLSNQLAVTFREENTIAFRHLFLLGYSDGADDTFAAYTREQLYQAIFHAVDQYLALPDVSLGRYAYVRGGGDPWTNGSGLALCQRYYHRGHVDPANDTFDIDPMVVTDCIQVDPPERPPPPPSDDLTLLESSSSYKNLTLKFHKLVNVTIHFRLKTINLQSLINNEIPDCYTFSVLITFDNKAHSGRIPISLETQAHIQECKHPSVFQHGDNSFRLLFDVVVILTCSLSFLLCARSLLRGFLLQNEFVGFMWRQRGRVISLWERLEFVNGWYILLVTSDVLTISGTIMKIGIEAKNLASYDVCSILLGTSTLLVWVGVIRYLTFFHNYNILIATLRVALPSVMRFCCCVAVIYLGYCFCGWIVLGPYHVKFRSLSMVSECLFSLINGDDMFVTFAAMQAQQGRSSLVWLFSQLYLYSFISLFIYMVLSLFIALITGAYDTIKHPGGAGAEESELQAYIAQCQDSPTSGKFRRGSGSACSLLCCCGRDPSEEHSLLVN
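Agonist activity was taken from a 110 s kinetic Ca2+ dye read on the FDSS after pinning compounds onto TRPML1-DL cells. The cells were seeded at 1,500/well with Tet inducer, incubated about 16 h, then dye-loaded at room temperature.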
TRPML1 blocker: human mucolipin-1 channel inhibition | TRPML1-inducible cells, Ca2+ dye fluorescence, FDSS; active compounds read low; inhibition of EC80 agonist-evoked calcium signal | activity change, negative = inhibition, % (test concentration not listed) | hit rate 0.02% among 390,000; in the data active means activity change below about -50%; inconclusive means about -30% to -50%; inactive means above about -30%;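 also: stimulus is agonist 54-4 at its EC80 concentration; % is scaled to controls: 0 for no effect and ±100 for the full control effect; compound concentration not given in the record; the text of the record puts the active cut at -80%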
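TRPML1-DL cells, Tet-induced overnight (~16 h, 37 °C) at 1,500 cells/well, were loaded with Ca8 no-wash dye plus quencher for 45-90 min at room temperature. Compounds were pinned during FDSS kinetic reading; agonist 54-4 at EC80 (4 uM final) then added.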
ClpP mod: qHTS Assay for Activators of ClpP. purified B. subtilis ClpP, FRET peptide cleavage, 20 min. ATP-dependent Clp protease proteolytic subunit (Bacillus subtilis (strain 168)), P80244. AID 651965, 2013. hit rate 1.9% among 340,000. Potency, µM (highest dose often 57.5 µM), for inactives: at the highest dose activity change, negative = active; active = well fitted falling curve with a large enough effect; inconclusive = small, poorly fitted or top-dose-only effect; inactive = no such curve, though single readings can be large or run the other way; also: potency is read from the fitted curve at half-maximal effect; the source files actives as falling curves though it sought activators and does not explain the sign; nearly all actives have a fitted effect of over 65% in size; many hits overshoot -100%
Target sequence (P80244 whole entry, looked up): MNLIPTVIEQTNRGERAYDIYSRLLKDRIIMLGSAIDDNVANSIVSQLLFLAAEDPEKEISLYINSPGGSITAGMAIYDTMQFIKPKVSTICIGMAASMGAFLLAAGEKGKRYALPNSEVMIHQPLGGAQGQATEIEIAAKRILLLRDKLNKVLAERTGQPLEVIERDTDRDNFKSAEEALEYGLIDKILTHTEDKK
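FRET quenching reversal measured ClpP activation: 10 microg/mL B. subtilis ClpP at pH 8 with the FRET-FV decapeptide, read at 430 nm after 320 nm excitation. The 20-min minus 0-min signal was scaled between DMSO/no-enzyme wells and ADEP (5.8 microM final).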
gsp agonist: activates gsp, the McCune-Albright syndrome mutation. gsp mutant cells, cAMP HTRF, 30 min; control for the full effect not named in the record. Potency, µM (doses to about 76.9 µM), inactives show at the highest dose activation (cAMP increase), actives largely listed as activators. hit rate 0.13% among 340,000. AID 624287; active = well fitted activation curve with a large enough effect; inconclusive = small, poorly fitted or top-dose-only effect, or another doubt; inactive = no such curve, though single readings can be large or run the other way; cell line not stated here;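 also: phosphodiesterase inhibitor Ro 20-1724 added with compounds to block cAMP breakdown; potency is read from the fitted curve at half-maximal effect; nearly all actives have a fitted effect of over 60% in size; about a fifth of the inactives were tested at one dose only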
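Cells in DMEM/10% FBS with G418 were pretreated with compounds in DMSO plus […] (300 uM stock) for 30 min at 37C. cAMP was measured by HTRF (cAMP-d2 plus anti-cAMP antibody-K) after 30 min at room temperature.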
Menin-MLL FL inh: inhibitors of human menin-MLL interaction, wild-type MLL peptide; FP activity change, % at 61.4 µM; AID 1766; 290,000 tested, under 10 active; Fluorescence polarization, fluorescein-MLL peptide displacement from menin; inconclusive = falling polarisation curve, or a change in total fluorescence; inactive = total fluorescence flat and polarisation flat or rising; no compound was filed as active; the % refers to the polarisation; negative = inhibition;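 also: % of control where 0% means no effect; inhibitors lower the polarisation; unlabelled MLL peptide was the positive control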
gsp antag: antagonizes gsp, the McCune-Albright syndrome mutation. gsp-mutant cells, cAMP HTRF, 30 min; control for the full effect not named in the record. Potency, µM (highest dose often 76.9 µM), for the others: top-dose activity change, negative = inhibition, hits mostly inhibitors. hit rate 0.4% among 340,000; active = falling curve of any shape with a large fitted effect; inconclusive = falling curve, mostly with a smaller effect; inactive = flat or rising curve; cell line not stated here;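 also: intracellular cAMP measured with PDE inhibitor Ro 20-1724 present during compound exposure; potency is read from the fitted curve at half-maximal effect; % is scaled to controls: 0 for no effect and ±100 for the full control effect; nearly all actives have a fitted effect of over 65% in size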
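Measurement of cellular cAMP by homogeneous time-resolved fluorescence following a 30 min compound exposure at 37C. The PDE inhibitor […] was present throughout; the assay buffer was DPBS with 0.05% BSA and 0.005% Tween 20.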
* hit, by the source's call; u = inconclusive; x = no result given; [ ] = another dose, or the depositor's remark. Rows were taken by chance; overall some 2.1% were active at least once.

SMILES | TRPML1 agonist | TRPML1 blocker | ClpP mod | gsp agonist | Menin-MLL FL inh | gsp antag
CCOC(=O)N1CCN(C(=O)C2CC(c3cc(OC)ccc3OC)=NO2)CC1 (configuration not stated) | 4.0 | -3 | u | -18% | 4.3 | -10%
COc1ccc(OCC(=O)NC(=S)NNC(=O)COc2ccc(Br)cc2Cl)cc1 | 0.9 | -10 | x | -4%[15.4 µM] | -3.5 | x
Cc1ccccc1CSc1nnc(-c2ccncc2)o1 | 4.2 | 9 | -0.5% | 15% | -2.3 | -5%
CCc1ccc(C(CC(=O)c2ccc(Cl)cc2)C(=O)O)cc1 (configuration not stated) | -0.1 | -4 | -5.8% | 10% | 1.8 | 3%
COc1ccccc1NS(=O)(=O)c1ccc(C)c(C(=O)NCC(c2cccs2)N2CCOCC2)c1 (configuration not stated) | 0.1 | 0 | -1.0% | -43% | x | -6%
c1ccc(Cc2nnc3sc(Nc4ccccc4)nn23)cc1 | 0.4 | 12 | 0.5% | -19% | 2.7 | -1%
COc1ccc(C(=O)/C=C/NCc2ccc(F)cc2)cc1OC | 0.4 | 11 | x | -5%[15.4 µM] | 6.0 | -6%
COc1ccc(C(=O)NCCn2cc(SCC(=O)Nc3nnc(C)s3)c3ccccc32)cc1 | 2.3 | -13 | 0.2% | 12% | x | -10%
CC(=O)N1CCC2(CC1)CC(=O)c1cc(OCC(=O)N3CCCC3)ccc1O2 | 0.2 | -5 | 4.1% | u | 0.9 | -3%
COc1ccc(CC(=O)N/N=C(/C)CC(=O)N(C)c2ccccc2)cc1 | 0.0 | -8 | x | -16% | x | 3%
CCn1cc(C(=O)N[C@H](C)c2ccccc2)c(=O)c2cc(F)c(N3CCN(C)CC3)cc21 | 0.2 | -12 | -21% | -1% | 2.0 | -27%
CCCCCN=C(C)c1c(O)c2ccccc2oc1=O | 1.9 | 21 | -2.6% | 0% | 8.1 | -3%
CC1CCCN(S(=O)(=O)c2cc(C(=O)NCc3ccccc3Cl)n(C)c2)C1 (configuration not stated) | 2.3 | 6 | -1.4% | x | x | x
Cc1cc(Cl)ccc1OCC(=O)OCC(=O)Nc1ccc(F)c([N+](=O)[O-])c1 | 0.5 | 2 | 1.3% | 18% | -0.2 | 14%
O=C(c1ccc(CSc2nc3ccncc3n2Cc2ccccc2F)cc1)N1CCCCC1 | 3.1 | -3 | -1.1% | x | x | x

Entries shown so far with two or more sulfur atoms (2):
SMILES | TRPML1 agonist | TRPML1 blocker | ClpP mod | gsp agonist | Menin-MLL FL inh | gsp antag
COc1ccccc1NS(=O)(=O)c1ccc(C)c(C(=O)NCC(c2cccs2)N2CCOCC2)c1 (configuration not stated) | 0.1 | 0 | -1.0% | -43% | x | -6%
COc1ccc(C(=O)NCCn2cc(SCC(=O)Nc3nnc(C)s3)c3ccccc32)cc1 | 2.3 | -13 | 0.2% | 12% | x | -10%

The list continues.
SMILES | TRPML1 agonist | TRPML1 blocker | ClpP mod | gsp agonist | Menin-MLL FL inh | gsp antag
Cc1cc(C)cc(NC(=O)CCc2nc3sc4c(c3c(=O)[nH]2)CCCC4)c1 | 0.0 | -15 | 0.4% | -44%[inhibitor] | x | 2%
Cc1ccc(Nc2nc3ccccc3n3cnnc23)cc1C | 1.8 | 1 | x | u | 3.5 | -8%
CCn1cc(C(=O)OCc2ccccc2)c(=O)c2ccc(C)nc21 | -0.2 | 4 | 1.8% | -7% | 3.4 | -4%
CCOC(=O)Cn1c(-c2cccnc2Cl)nc2cc(C)c(C)cc21 | 0.5 | 12 | -12% | -21% | 0.0 | -9%
COc1ccc(OCC(=O)NCCNC(=O)c2ccncc2)cc1 | 0.1 | 1 | x | 14% | 0.8 | 10%
CC(=O)NN1C(=O)/C(=C2/Sc3ccccc3N2C)SC1=S | 0.1 | -15 | 1.2% | -50%[inhibitor] | 11 | -14%
Clc1ccccc1CSc1snnc1-c1ccccc1 | 0.2 | 28 | -0.1% | -53%[inhibitor] | -0.5 | -1%
O=C(CC1N=C2c3ccccc3N=C(SCC(=O)Nc3ccccc3F)N2C1=O)NCc1ccc2c(c1)OCO2 (configuration not stated) | -0.1 | 7 | -10% | x | x | x
Cc1ccc(C)c(OCCC(=O)NNC(=O)c2ccccc2)c1 | 1.7 | 10 | x | -6%[15.4 µM] | x | -2%
O=C1CC(C(=O)O)S/C(=N\N=C\c2ccc(Br)cc2)N1 (configuration not stated) | 0.2 | -6 | -1.3% | 44% | 2.6 | 3%
O=S1(=O)c2ccccc2N(Cc2cccc(C(F)(F)F)c2)c2ccccc21 | 3.0 | 32 | u | x | x | x
COc1ccccc1N1CCN(C(CNC(=O)c2ccc3c(c2)OCO3)c2cccnc2)CC1 (configuration not stated) | -0.8 | 4 | -3.2% | 14% | -0.8 | -10%
CCn1c(SCC(=O)Nc2ccc(N3CCOCC3)cc2)nnc1-c1ccc(OC)cc1 | 1.5 | 7 | 1.7% | 5% | 0.6 | -3%
CCS(=O)(=O)N1Cc2ccccc2CC1C(=O)N1CCN(c2cccc(C)c2C)CC1 (configuration not stated) | 1.4 | 5 | -1.1% | -24% | 3.0 | -11%
CC(=O)c1cccc(NC(=O)c2sc3nc4n(c(=O)c3c2C)CCCC4)c1 | -0.5 | -16 | -2.5% | u | -8.5 | u
CC(C)CN(C(=O)CSc1nn(-c2ccc(Cl)cc2)c(=S)s1)C1CCS(=O)(=O)C1 (configuration not stated) | 2.6 | 46 | -0.6% | u | -0.4 | -3%
CCN(C(=O)Cn1c(=O)oc2cc(S(=O)(=O)N3CCCC3)ccc21)c1ccc(OC)cc1 | -1.1 | -1 | 2.1% | -7% | 3.3 | -5%
CC(=O)Nc1cccc(NC(=O)C2(c3cccs3)CCOCC2)c1 | -0.8 | 30 | 1.2% | x | x | x
CCc1ccc(/C=N/n2c(COc3ccccc3)n[nH]c2=S)cc1 | x | x | 0.1% | 5% | -6.5 | u
COc1cccc(CNC(=O)CCSCc2ccccc2F)c1 | -0.7 | -8 | 24% | -6%[15.4 µM] | -0.7 | -6%
O=C(CCN1CCCCC1)N=Nc1c(O)[nH]c2ccccc12 | -0.3 | 2 | x | u | 1.3 | -1%
O=C(O)[C@H]1C[C@@H](CP(=O)(O)O)CCN1 | 0.8 | 1 | x | x | u | x
CCCOCCc1nnc(N)s1 | -0.2 | -4 | -1.3% | 2% | 2.9 | 7%
CCc1cc2cc(C)ccc2nc1SCC(=O)Nc1cc(C)on1 | 2.2 | -7 | 13% | -5% | -3.8 | 8%
CCCC(=O)Nc1ccc(Cc2ccc(NC(=O)CCC)c(C(=O)O)c2)cc1C(=O)O | 0.3 | -19 | x | 28% | 0.6 | 7%
COc1ccc(OC)c(NC(=O)COC(=O)c2cc3c(s2)CCC3)c1 | 2.9 | 16 | 26% | u | -1.8 | 5%
CC1(c2ccccc2)CC(C)(C)N2C(=O)/C(=C3\SC(=S)NC3=O)c3cccc1c32 (configuration not stated) | 4.3 | 4 | 0.8% | -31% | -3.8 | u
Cn1c(=O)c(=O)n(C)c2cc(S(=O)(=O)NCCOc3ccccc3)ccc21 | 1.3 | 26 | x | u | -1.3 | 1%
OCCC1CN(CC2CCCCC2)CCN1C1CCCC1 (configuration not stated) | 0.4 | 52 | x | -8% | 2.3 | 11%
COC(=O)CNC(=O)c1cccc(Cl)c1 | 1.1 | -2 | 0.0% | -53%[inhibitor] | -5.2 | 6%
CC(Cc1ccccc1)C(=O)Nc1ccc(Br)cc1 (configuration not stated) | -0.1 | -12 | -0.3% | -9% | 2.3 | -10%
O=C(CSC1=NCCS1)NC1CCCC1 | -0.4 | -6 | 1.0% | 2% | 4.3 | 9%
C=CCOc1ccc2c(CC)cc(=O)oc2c1C | 3.6 | 2 | 25µM* | 9% | -1.4 | -6%
O=C(NCC1CCCO1)c1ccc(-c2cccc(C(F)(F)F)c2)o1 (configuration not stated) | 0.8 | -6 | -9.2% | u | x | 10%
O=C(c1ccc([N+](=O)[O-])cc1)N(Cc1ccc(Cl)cc1Cl)N1C(=O)CCCC1=O | -0.1 | -12 | -2.3% | -56%[inhibitor] | 4.9 | -13%
CCC(CO)NCc1ccc(OCC(=O)Nc2cccc(C(F)(F)F)c2)c(OC)c1 (configuration not stated) | 1.5 | 9 | -0.1% | -37%[inhibitor] | 0.3 | -17%
CCOC(=O)c1nn(-c2ccccc2)c(=O)c2c(NC(C)=O)scc12 | -0.5 | 4 | x | -8%[15.4 µM] | -1.3 | 0%
CCOC(=O)C(CC)/C(C)=N\NC(=O)c1ccccc1O (configuration not stated) | 0.5 | 2 | -30% | -17% | -0.7 | -8%
C=CCNC(=O)c1cc(C(=O)C(C)c2ncc(C(F)(F)F)cc2Cl)c[nH]1 (configuration not stated) | 5.8 | -9 | x | -19%[15.4 µM] | 1.5 | 11%
CC(=O)c1ccc(N2CCN(C(=O)c3ccc4[nH]c(C)c(C)c4c3)CC2)cc1 | -0.3 | 2 | -24% | 13% | x | u
Oc1c(C(c2ccc(Cl)cc2)N2CCCC2)sc2nc(-c3ccco3)nn12 (configuration not stated) | 0.8 | 7 | -2.6% | x | x | x
Cc1[nH]n(-c2ccc(F)cc2)c(=O)c1/C=N/c1sc2c(c1C#N)CCCC2 | -0.7 | -4 | 1.5% | 2% | 12 | 12%
O=C(CSc1ncc(S(=O)(=O)c2ccc(Br)cc2)c(=O)[nH]1)NCc1ccc(Cl)cc1 | -1.1 | -3 | -1.3% | x | x | x
CCc1cccc(CC)c1-n1c(SCC(=O)c2c(N)n(C)c(=O)n(C)c2=O)nnc1-c1cccnc1 | 1.6 | -6 | -6.5% | 4% | 5.5 | 6%
O=C(NCC12CC3CC(CC(C3)C1)C2)c1nc2ncccn2n1 | -0.3 | 9 | 2.2% | -7% | -0.6 | 4%
O=C(COc1cc2oc(=O)cc(-c3ccccc3)c2cc1Cl)NC(Cc1c[nH]c2ccc(O)cc12)C(=O)O (configuration not stated) | x | x | 0.4% | x | -2.1 | -6%
COc1ccc(-c2nc3ccccc3o2)cc1NC(=O)COc1cc(C)cc(C)c1 | 3.8 | 8 | u | x | x | x
CCCC(=O)Nc1nc(C)c(-c2csc(Nc3ccc(Cl)cc3)n2)s1 | 0.3 | -7 | u | x | 3.5 | 4%
CC1Cc2nc(SCC(=O)N3CCCC3)n(C)c(=O)c2S1 (configuration not stated) | 0.2 | 2 | 0.6% | 7% | 0.2 | 4%
CCOc1cc(/C=N\NC(=O)CN2CCOCC2)ccc1OCc1ccc(F)cc1 | -0.7 | -14 | -1.1% | 2%[15.4 µM] | -0.3 | -13%
CCSC(=Nc1ccccc1)C1=C(O)COC1=O | -0.7 | -12 | -3.6% | 0% | 4.0 | -13%
COc1ccccc1NC(=O)N1CCN(C)CC1 | -0.1 | -15 | x | u | 2.3 | 10%

Screening data from PubChem.
